Screening data deposited in PubChem BioAssay by National Center for Advancing Translational Sciences (NCATS).
D2 potentiator: Beta-Arrestin HTS for Positive Allosteric Modulators of the Human D2 Dopamine Receptor: Potentiators; actives 0.23% (n = 360,000); DiscoveRx D2 beta-arrestin cells, luminescence, 90 min; 100% = 57 uM dopamine signal; D(2) dopamine receptor (Homo sapiens), P14416; potentiation, % (concentration not given with the values); active = potentiation of 50% or more; inconclusive = 30% to 50%; inactive = 30% or less;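 also: compound concentration not given in the record; tested on top of an EC20 dose of dopamine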
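D2 cells co-treated with compound plus 50 nM dopamine (EC20) for 90 min at 37 deg C to detect potentiation. Beta-arrestin recruitment was read as enzyme-fragment luminescence after 1 h at ambient temperature. Full response was set by 57 uM dopamine.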
CtBP-E1A blk: qHTS Assay for Inhibitors of the CtBP/E1A Interaction | CtBP / adenovirus E1A interaction (AlphaScreen) | AlphaScreen GST-E1A/His-CtBP binding, 1536-well; hits give low values; control for the full effect not named in the record | activity change, % (no concentration beside the values) | actives 0.49% (n = 340,000) | AID 651724, 2012; in the data active means activity change below about -65%; inconclusive means about -30% to -65%; inactive means above about -30%; also: % is scaled to controls: 0 for no effect and ±100 for the full control effect; compound concentration not given in the record
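GST-E1A and His-tagged CtBP (125 nM each as 5X stock) were preincubated with pin-transferred compound for 2 h at 37 °C in the dark, then glutathione donor and nickel acceptor beads were added for 1 h before AlphaScreen reading.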
PINK1 expr mod: A Quantitative High throughput Screen to Identify Chemical Modulators of PINK1 Expression; PINK1 immunofluorescence, high-content cytometry, 24 h; Potency, µM (titrated, usually from 76.6 µM), without a hit: at the top dose activation (PINK1 increase), actives largely listed as activators; actives 0.2% (n = 410,000); active = well fitted activation curve with a large enough effect; inconclusive = small, poorly fitted or top-dose-only effect; inactive = flat fitted curve, though single readings scatter; cell line not stated here;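 also: potency is read from the fitted curve at half-maximal effect; % of control where 0% means no effect; nearly all actives have a fitted effect of over 65% in size; a mitochondrial uncoupler was the plate control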
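Measures PINK1 amount and localization on or inside mitochondria by immunofluorescence. Stable cells get compounds at 5 concentrations for 24 hours before fixation and staining; CCCP controls included.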
TRPML1 agonist: qHTS for Agonists of the Human Mucolipin Transient Receptor Potential 1 (TRPML1); Mucolipin-1 (Homo sapiens), Q9GZU1; TRPML1-expressing cells, Ca2+ dye fluorescence, FDSS; host cell line not named in the record; reference of the full effect not given here; activation, % (no concentration beside the values); actives 0.12% (n = 410,000); in the data active = activation above about 50%; inconclusive = about 30% to 50%; inactive = below about 30%; also: 0% is about no effect; the text of the record puts the active cut at 80%
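Cells: TRPML1-DL, 1X Tet inducer, ~16 h at 37 degrees C/5% CO2. Dye: ABD Ca8 no-wash + quencher, 45-90 min RT. Read: 10 s baseline, compound add, 110 s agonist phase; 54-4 EC80 (4uM final), 110 s antagonist phase.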
Six1-Eya2 inh: qHTS Assay for Inhibitors of the Six1/Eya2 Interaction; activity change, % (test concentration not listed); actives 0.56% (n = 360,000); AlphaScreen GST-Six1/His-Eya2 binding, biochemical; hits give low values; control for the full effect not named in the record; in the data active = activity change below about -65%; inconclusive = about -30% to -65%; inactive = above about -30%; also: % is scaled to controls: 0 for no effect and ±100 for the full control effect; compound concentration not given in the record
Target sequence (O00167 whole entry, looked up): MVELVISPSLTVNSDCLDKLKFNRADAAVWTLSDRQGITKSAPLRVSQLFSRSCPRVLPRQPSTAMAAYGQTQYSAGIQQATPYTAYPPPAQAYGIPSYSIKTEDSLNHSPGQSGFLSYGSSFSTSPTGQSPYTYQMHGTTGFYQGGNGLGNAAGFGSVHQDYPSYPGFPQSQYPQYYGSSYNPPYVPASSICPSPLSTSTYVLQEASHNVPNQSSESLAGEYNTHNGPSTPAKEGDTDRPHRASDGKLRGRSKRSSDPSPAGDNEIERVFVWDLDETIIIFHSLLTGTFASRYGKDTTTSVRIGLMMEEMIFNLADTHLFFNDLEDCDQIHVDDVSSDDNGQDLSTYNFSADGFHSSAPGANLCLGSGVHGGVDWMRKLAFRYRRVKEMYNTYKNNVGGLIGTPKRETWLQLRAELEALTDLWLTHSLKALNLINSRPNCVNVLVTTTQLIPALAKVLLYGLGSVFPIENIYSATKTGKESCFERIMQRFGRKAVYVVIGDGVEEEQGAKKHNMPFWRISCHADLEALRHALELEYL
Target sequence (Q15475 whole entry, looked up): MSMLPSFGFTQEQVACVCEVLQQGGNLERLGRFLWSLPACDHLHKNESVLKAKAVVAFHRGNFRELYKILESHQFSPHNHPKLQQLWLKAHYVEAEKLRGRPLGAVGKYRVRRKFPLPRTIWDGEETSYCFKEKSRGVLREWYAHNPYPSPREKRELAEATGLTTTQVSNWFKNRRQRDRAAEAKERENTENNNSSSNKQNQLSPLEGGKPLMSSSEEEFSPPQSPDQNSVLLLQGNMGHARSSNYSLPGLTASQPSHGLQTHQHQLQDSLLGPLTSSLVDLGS
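GST-Six1 + His-Eya2 (5X stock: 250/500 nM); Tris pH 8.0, 300 mM NaCl, 0.05% BSA, 0.02% Tween 20; GSH donor/Ni acceptor beads; 1 h 37 °C dark; AlphaScreen readout.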
D2 ag: Beta-Arrestin HTS for Positive Allosteric Modulators of the Human D2 Dopamine Receptor: Agonists | DiscoveRx PathHunter D2 beta-arrestin, luminescence, 90 min; 100% = 57 uM dopamine signal | activation, % (concentration not given with the values) | actives 0.084% (n = 360,000); in the data active = activation above about 40%; inconclusive = about 15% to 40%; inactive = below about 15%; also: compound concentration not given in the record; the text of the record calls up to 30% inactive
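DiscoveRx PathHunter D2 beta-arrestin cells (2,100/well) attached overnight, then compound-stimulated 90 min at 37 C in HBSS/10 mM HEPES/0.1% Tween-20 buffer; beta-galactosidase complementation read by luminescence after 1 h at ambient temperature. Dopamine 57 uM final (EC100) as control.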
Active calls of the source: *; ? = inconclusive; . = not tested or not shown; [ ] = remark or other dose.

The opening six compounds, to show the layout:
nr | Compound | D2 potentiator | CtBP-E1A blk | PINK1 expr mod | TRPML1 agonist | Six1-Eya2 inh | D2 ag
1 | CCOc1ccc(S(=O)(=O)N2CCC(C(=O)NCCc3ccc(S(N)(=O)=O)cc3)CC2)cc1 | 1 | . | 2.3% | -0.2 | -1 | -0.1
2 | COc1ccccc1CNC(=O)C(Cc1c[nH]c2ccccc12)NC(=O)OCc1ccccc1 (stereo not drawn) | -22 | 14 | -1.6% | 4.4 | 4 | -3.2
3 | O=C(Cc1ccccc1)N1CCC(c2nc(-c3ccc(F)cc3)no2)CC1 | 7 | 0 | 2.0%[38.3 µM] | 0.8 | -1 | -1.7
4 | CN1CCN(CC(O)COc2ccc(S(=O)(=O)N3CCOCC3)cc2)CC1 (stereo not drawn) | -2 | -3 | -1.5% | 0.3 | 4 | -2.2
5 | O=C(CSC1=NCCS1)Nc1ccc2ccccc2c1 | -4 | 0 | 2.3% | 1.1 | 5 | 0.2
6 | O=C(CN1C(=O)C2(OCCO2)c2ccccc21)c1ccc(Br)cc1 | -1 | 5 | ? | 1.4 | 0 | -1.8

Results, repeating the preview:
nr | Compound | D2 potentiator | CtBP-E1A blk | PINK1 expr mod | TRPML1 agonist | Six1-Eya2 inh | D2 ag
1 | CCOc1ccc(S(=O)(=O)N2CCC(C(=O)NCCc3ccc(S(N)(=O)=O)cc3)CC2)cc1 | 1 | . | 2.3% | -0.2 | -1 | -0.1
2 | COc1ccccc1CNC(=O)C(Cc1c[nH]c2ccccc12)NC(=O)OCc1ccccc1 (stereo not drawn) | -22 | 14 | -1.6% | 4.4 | 4 | -3.2
3 | O=C(Cc1ccccc1)N1CCC(c2nc(-c3ccc(F)cc3)no2)CC1 | 7 | 0 | 2.0%[38.3 µM] | 0.8 | -1 | -1.7
4 | CN1CCN(CC(O)COc2ccc(S(=O)(=O)N3CCOCC3)cc2)CC1 (stereo not drawn) | -2 | -3 | -1.5% | 0.3 | 4 | -2.2
5 | O=C(CSC1=NCCS1)Nc1ccc2ccccc2c1 | -4 | 0 | 2.3% | 1.1 | 5 | 0.2
6 | O=C(CN1C(=O)C2(OCCO2)c2ccccc21)c1ccc(Br)cc1 | -1 | 5 | ? | 1.4 | 0 | -1.8
7 | CCC(=O)N1CCc2cc(S(=O)(=O)NC(C(=O)Nc3cccc(C)n3)C(C)C)ccc21 (stereo not drawn) | 2 | 5 | -0.5% | -0.7 | 1 | 1.1
8 | CC1C(=O)Nc2ccccc2N1C(=O)c1c(F)cccc1F (stereo not drawn) | 8 | 7 | -2.0% | 0.8 | 1 | -0.5
9 | O=C(Nc1cc(S(=O)(=O)N2CCCCC2)ccc1Cl)C1=NN(c2ccccc2)C(=O)CC1 | -5 | 4 | 4.2% | -0.2 | 0 | 0.9
10 | O=C(Nc1ccc(F)c(Cl)c1)C1Cc2c(-c3ccco3)ccnc2O1 (stereo not drawn) | -2 | -4 | 2.7% | -0.6 | -2 | 6.9
11 | O=C(Cc1ccc(S(=O)(=O)N2CCOCC2)s1)N1CCN(S(=O)(=O)c2cccc([N+](=O)[O-])c2)CC1 | 17 | -12 | -0.2% | 1.2 | -8 | 12
12 | O=S(=O)(c1ccc(F)cc1)N1CCN(c2ccccc2)CC1 | -4 | -11 | -0.6% | 0.1 | -14 | 1.1
13 | Cc1ccc(OCC(=O)NN2C(=O)c3ccccc3C2=O)c(C)c1 | -9 | 3 | -1.3% | 0.7 | 1 | -4.3
14 | O=C(NCCCc1ccccc1)c1ccc([N+](=O)[O-])cc1Cl | 10 | -5 | -0.1% | -0.4 | 2 | 4.5
15 | COc1ccc(CNC(=O)CN2C(=O)CSc3ccc(S(=O)(=O)N4CCOCC4)cc32)cc1 | -4 | 4 | -1.8% | 0.0 | 2 | -0.1
16 | N#CC(=C=[N-])c1nc2ccccc2nc1-[n+]1cccc(NC(=O)c2cccs2)c1 | -5 | -1 | 1.5% | -0.4 | -2 | -3.0
17 | O=C(CC(c1ccccc1)c1ccccc1)NCc1cccnc1 | -15 | 0 | 2.3%[38.3 µM] | -0.1 | 0 | -0.6
18 | C/C(=C\C(=S)Nc1ccccc1)Nc1ccc2ccccc2c1 | -13 | 6 | 16% | -0.5 | -11 | -6.2
19 | O=C(CN1C(=O)C2CCCCC2C1=O)Nc1cccc(C(F)(F)F)c1 (stereo not drawn) | -27 | 1 | 1.2% | 1.1 | 1 | -0.5
20 | COc1cccc2cc(S(=O)(=O)c3ccc(C)cc3)/c(=N/NS(=O)(=O)c3ccc(C)cc3)oc12 | -1 | 2 | 0.4% | 0.8 | 34 | -2.7
21 | CCOC(=O)[C@]12CCCC=C1N(Cc1cccc3ccccc13)C(=O)[C@H](CC(=O)NCC1CCCCC1)C2 | . | -7 | -0.6% | -0.6 | -4 | .
22 | COc1cc2c(cc1OC)C(c1ccccc1)CC2=O (stereo not drawn) | 3 | . | -0.2% | 0.8 | 0 | -4.6
23 | COc1ccc(NC(=O)CC2C(=O)N(c3cccc(OC)c3)C(=O)N2CCC(C)C)cc1 (stereo not drawn) | -1 | 1 | 1.8%[38.3 µM] | 2.7 | 1 | -0.7
24 | COc1ccc(C(=O)N2CCN(Cc3ccccc3)CC2)cc1[N+](=O)[O-] | -1 | . | 1.6% | . | -2 | -1.8
25 | O=C(CN1C(=O)CCS(=O)(=O)c2ccccc21)NCc1ccccc1 | -1 | 5 | -0.7% | 3.9 | -1 | -3.1

Limited to D2 ag and Six1-Eya2 inh, for 6 of the compounds above:
| cpd | Structure | D2 ag | Six1-Eya2 inh |
| --- | --- | --- | --- |
| 7 | CCC(=O)N1CCc2cc(S(=O)(=O)NC(C(=O)Nc3cccc(C)n3)C(C)C)ccc21 (stereo not drawn) | 1.1 | 1 |
| 6 | O=C(CN1C(=O)C2(OCCO2)c2ccccc21)c1ccc(Br)cc1 | -1.8 | 0 |
| 4 | CN1CCN(CC(O)COc2ccc(S(=O)(=O)N3CCOCC3)cc2)CC1 (stereo not drawn) | -2.2 | 4 |
| 11 | O=C(Cc1ccc(S(=O)(=O)N2CCOCC2)s1)N1CCN(S(=O)(=O)c2cccc([N+](=O)[O-])c2)CC1 | 12 | -8 |
| 2 | COc1ccccc1CNC(=O)C(Cc1c[nH]c2ccccc12)NC(=O)OCc1ccccc1 (stereo not drawn) | -3.2 | 4 |
| 8 | CC1C(=O)Nc2ccccc2N1C(=O)c1c(F)cccc1F (stereo not drawn) | -0.5 | 1 |

Back to the main list, starting 2 compounds before the break.
nr | Compound | D2 potentiator | CtBP-E1A blk | PINK1 expr mod | TRPML1 agonist | Six1-Eya2 inh | D2 ag
24 | COc1ccc(C(=O)N2CCN(Cc3ccccc3)CC2)cc1[N+](=O)[O-] | -1 | . | 1.6% | . | -2 | -1.8
25 | O=C(CN1C(=O)CCS(=O)(=O)c2ccccc21)NCc1ccccc1 | -1 | 5 | -0.7% | 3.9 | -1 | -3.1
26 | COc1ccc(C(=O)NCCCNC(=O)c2ccccn2)cc1Br | -13 | 2 | 0.9% | 1.5 | -10 | -6.1
27 | CCn1c(C(c2ccccc2)c2ccccc2)n[nH]c1=S | -11 | 1 | -0.1% | 0.6 | -12 | 0.8
28 | OC(c1ccccc1)c1nc(-c2ccc(F)c(Cl)c2)cs1 (stereo not drawn) | 4 | 11 | 6.1% | 0.5 | 10 | 9.6
29 | O=C(Nc1ccon1)C1CCN(S(=O)(=O)c2cccs2)CC1 | 5 | 16 | -2.7% | -0.4 | 7 | -0.5
30 | O=C(Nc1ccc(Oc2ccc(NC(=O)Nc3ccc([N+](=O)[O-])cc3)cc2)cc1)Nc1ccc([N+](=O)[O-])cc1 | -5 | -2 | 28µM* | -0.3 | -10 | -1.7
31 | O=S(=O)(Nc1ccccc1N1CCCCC1)c1ccc(F)cc1 | -1 | 4 | 0.6% | 0.1 | -2 | -0.3
32 | O=C(O)CCn1nnc(-c2ccccc2)n1 | -9 | . | -0.3% | -0.3 | 1 | 1.4
33 | COC(=O)c1ccc(COC(=O)CNC(=O)c2ccco2)cc1 | 4 | 7 | -0.2% | 3.5 | 0 | 2.1
34 | CC(C)(C)C(=O)C[n+]1cccc(C(N)=O)c1 | 1 | 10 | -0.3% | 2.0 | -1 | -6.0
35 | Cc1cccc(NC(=O)CCC(=O)c2cccs2)n1 | -32 | -3 | 0.0% | 0.7 | -2 | -2.1
36 | O=c1c2c(nc3cc(-c4cccc(Cl)c4)[nH]n13)CCCC2 | -2 | -6 | 19% | 0.1 | -24 | -2.2
37 | COc1ccc(N2C(=O)C3CC(C)=C(C)CC3C2=O)c(OC)c1 (stereo not drawn) | -10 | 5 | 1.3% | 0.7 | 1 | 1.8
